p53 nuclei: p53 stabilisation in HPV-positive human cells, imaging, p53-positive nuclei imaging, 24 h, 48 h (AID 1508601); Cellular tumor antigen p53 (Homo sapiens); p53-positive nuclei imaging, 48 h; hits give high values; some inactives read as strong as hits; p53-positive nuclei, normalised, % at 11 µM unless noted; hit rate 1% among 5,700;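 active = mean of two plates above 50% at 24 h or at 48 h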;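 also: HPV-positive HeLa cells with a fluorescent p53 stability reporter; 0% = vehicle and 100% = proteasome inhibitor control; doses worked out from stocks diluted about 900-fold with the highest of each compound shown; many of its hits are not listed in these tables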
p53 nuclei cells 24 h: second read-out of p53 nuclei, no call of its own (marks repeat the call); nuclei count, normalised, %; measured here: cell number at 24 h;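 100% = vehicle wells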
p53 nuclei p53 24 h: further read-out of p53 nuclei, marked with its call; p53-positive nuclei, normalised, %; measured here: p53 positive nuclei at 24 h;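 0% = vehicle and 100% = positive control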
p53 nuclei cells 48 h: also measured in p53 nuclei; calls as there; nuclei count, normalised, %; measured here: cell number at 48 h;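 100% = vehicle wells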
An asterisk follows results filed as active; [ ] = remark or other dose.

Each structure is followed by: p53 nuclei | p53 nuclei cells 24 h | p53 nuclei p53 24 h | p53 nuclei cells 48 h
[1] CC(=O)Nc1nc2c(Oc3cc(-c4ccc(C(F)(F)F)cc4)ncn3)cccc2s1
    -0.1[3.7 µM] | 104 | -0.3 | 105
[2] CCCC(=O)Nc1nc(-c2ccccc2)cc(-c2ccccc2)n1
    0.3 | 104 | 0.1 | 101
[3] O=C(O)c1ccccc1SC1=NS(=O)(=O)c2ccccc21
    0.1 | 112 | 0.0 | 111
[4] CC(=O)Oc1cc2c(s1)CCN(C(C(=O)C1CC1)c1ccccc1F)C2 (configuration not stated)
    -0.3[3.7 µM] | 104 | -0.3 | 104
[5] COC1C=CO[C@@]2(C)Oc3c(C)c(O)c4c(O)c(c(C=NN5CCN(C6CCCC6)CC5)c(O)c4c3C2=O)NC(=O)C(C)=CC=CC(C)C(O)C(C)C(O)C(C)C(OC(C)=O)C1C (some centres not stated)
    -0.1[3.7 µM] | 99 | -0.2 | 94
[6] CN1CCN(c2ccc(Nc3cc(-c4cccc(-n5ccc6cc(C7CC7)cc(F)c6c5=O)c4CO)cn(C)c3=O)nc2)CC1
    -0.1 | 99 | 0.0 | 87
[7] O=C(CC(CSc1ccccc1)C(=O)O)c1ccc(-c2ccc(Cl)cc2)cc1 (configuration not stated)
    0.1 | 99 | -0.1 | 106
[8] Cc1ccc2c(Cl)cc(Cl)c(O)c2n1
    -0.1[3.7 µM] | 95 | -0.3 | 76
[9] CC(C)(C)NC(=O)C1CC[C@H]2[C@@H]3CC[C@H]4NC(=O)C=C[C@]4(C)[C@@H]3CC[C@]12C (some centres not stated)
    -0.5[3.7 µM] | 113 | -0.2 | 109
[10] CC(C)(N)C(=O)NC(COCc1ccccc1)C(=O)N1CCC2(CC1)CN(S(C)(=O)=O)c1ccccc12 (configuration not stated)
    0.2 | 108 | 0.0 | 107
[11] OC(COc1cccc2ncccc12)CN1CCN(C2c3ccccc3C3C(c4ccccc42)C3(F)F)CC1 (configuration not stated)
    -0.1 | 85 | 0.1 | 88
[12] O=C(O)Cc1c2ccccc2n2c1[nH]c(=O)c1ccccc12
    -0.2 | 93 | -0.2 | 98
[13] CC(=O)NS(=O)(=O)c1ccc(N)cc1
    -0.1[3.7 µM] | 114 | -0.2 | 103
[14] Cc1cc(Cl)ccc1OCCCC(=O)NO
    -0.6[3.7 µM] | 115 | -0.3 | 108
[15] CCOc1nc2cccc(C(=O)O)c2n1Cc1ccc(-c2ccccc2-c2nn[nH]n2)cc1
    -0.2[3.7 µM] | 108 | -0.5 | 104
[16] Nc1ncnc2c1C(=O)N(c1ccc(C3CCC(CC(=O)O)CC3)cc1)CCO2 (configuration not stated)
    -0.1 | 118 | -0.1 | 108
[17] CCOC(=O)C1OC1C(=O)NC(CC(C)C)C(=O)NCCC(C)C (configuration not stated)
    -0.1[3.7 µM] | 108 | -0.2 | 105
[18] CN(C)C1CCN(C(=O)c2ccc(NC(=O)Nc3ccc(-c4nc(N5CCOCC5)nc(N5CCOCC5)n4)cc3)cc2)CC1
    9.4 | 61 | -0.1 | 52
[19] C#C[C@@]1(OC(C)=O)CC[C@H]2[C@@H]3CCC4=CC(OC(C)=O)CC[C@@H]4[C@@H]3CC[C@@]21C (some centres not stated)
    -0.1[3.7 µM] | 112 | -0.2 | 101
[20] COc1cc(NS(=O)(=O)c2ccc(N)cc2)nc(OC)n1
    -0.2[3.7 µM] | 104 | -0.2 | 100

(cont.)
Each structure is followed by: p53 nuclei | p53 nuclei cells 24 h | p53 nuclei p53 24 h | p53 nuclei cells 48 h
[21] Cc1cc(Nc2cc(NC(=O)c3c(Cl)cccc3Cl)ccn2)nc(N)n1
    4.6 | 51 | -0.2 | 34
[22] CC(C)(C)OC(=O)CN(Cc1ccc(Cl)cc1)Cc1ccc([N+](=O)[O-])s1
    -0.3 | 118 | -0.2 | 106
[23] CCCc1nn(C)c2c(=O)[nH]c(-c3cc(S(=O)(=O)N4CCN(C)CC4)ccc3OCC)nc12
    -0.3 | 121 | 0.1 | 117
[24] CC(C)(Oc1ccc(C2CC2(Cl)Cl)cc1)C(=O)O (configuration not stated)
    -0.2[3.7 µM] | 95 | -0.3 | 98
[25] Cc1ccc(S(=O)(=O)c2ccc([N+](=O)[O-])o2)cc1
    11[3.7 µM] | 62 | 20 | 60
[26] Cc1cccc(-c2[nH]ncc2-c2ccc3ncccc3n2)n1
    -0.2[3.7 µM] | 114 | -0.3 | 117
[27] O=c1c(O)c(-c2ccc(O)c(O)c2)oc2cc(O)ccc12
    0.0[3.7 µM] | 104 | -0.1 | 99
[28] CC(=O)N[C@@H](CS)C(=O)O
    -0.1[3.7 µM] | 98 | -0.2 | 104
[29] Cc1cc(C(C)(C)C)c(O)c(C(C)(C)C)c1
    0.0 | 114 | 0.0 | 109
[30] Cc1ccc(F)cc1C(=O)Nc1ccc(C(=O)N2Cc3cccn3Cc3ccccc32)c(Cl)c1
    -0.1 | 97 | 0.0 | 91
[31] CC(OC1OCCN(Cc2n[nH]c(=O)[nH]2)C1c1ccc(F)cc1)c1cc(C(F)(F)F)cc(C(F)(F)F)c1 (configuration not stated)
    0.8 | 82 | 0.1 | 73
[32] O=S(=O)(O)Oc1ccc(C(c2ccc(OS(=O)(=O)O)cc2)c2ccccn2)cc1
    -0.1[3.7 µM] | 112 | -0.3 | 101
[33] Cc1cc(C)c(C=C2C(=O)Nc3ccccc32)[nH]1
    -0.1[3.7 µM] | 116 | -0.3 | 119
[34] COc1cc2ncc(-c3ccccc3)nc2cc1OC
    55*[3.7 µM] | 79* | 3.1* | 45*
[35] NC(Cc1cc(I)c(Oc2cc(I)c(O)c(I)c2)c(I)c1)C(=O)O (configuration not stated)
    -0.3[3.7 µM] | 96 | -0.3 | 102
[36] N#Cc1c(C2CCNCC2)cc(-c2c(O)cccc2OCC2CC2)nc1N
    0.4 | 79 | 0.3 | 80
[37] CCN1CCN(Cc2ccc(NC(=O)c3ccc(C)c(Oc4ccnc5[nH]ccc45)c3)cc2C(F)(F)F)CC1
    -0.1 | 101 | 0.0 | 112
[38] NC(=O)CCCSc1nc(N)nc(-c2c(Cl)cc3c4c(cccc24)COC3)n1
    -0.1[3.7 µM] | 41 | -0.3 | 34
[39] O=C(O)c1ccc2nc(-c3cc(Cl)cc(Cl)c3)oc2c1
    -0.1 | 104 | 0.0 | 105
[40] O=C(C=Cc1ccc(CN(CCO)CCc2c[nH]c3ccccc23)cc1)NO
    113*[3.7 µM] | 38* | 94* | 20*

Remaining list, next part.
Each structure is followed by: p53 nuclei | p53 nuclei cells 24 h | p53 nuclei p53 24 h | p53 nuclei cells 48 h
[41] CN1C2CCC1CC(OC(c1ccccc1)c1ccccc1)C2 (configuration not stated)
    -0.1[3.7 µM] | 117 | -0.2 | 114
[42] NC(N)=NCCCC(NC(=O)COCC(c1ccccc1)c1ccccc1)C(=O)O (configuration not stated)
    0.1 | 114 | 0.2 | 109
[43] NC(=O)c1c(NC(=O)C2CC2)sc2c1CCCC2
    -0.1 | 104 | -0.1 | 108
[44] NC(CCNCc1ccc(Cl)cc1)C(=O)N1CCCCC1 (configuration not stated)
    0.0 | 105 | -0.2 | 106
[45] O=C(O)C1CCC(c2cc3cccnc3c(-c3cccc(F)c3)n2)CC1 (configuration not stated)
    0.0 | 108 | -0.1 | 107
[46] COc1cc(OC2CCN(C)CC2)ccc1Nc1ncc2c(n1)n(C1CCCC1)c(=O)n2C
    0.3[3.7 µM] | 120 | -0.3 | 113
[47] NCCc1ccc(O)c(O)c1
    -0.1 | 96 | 0.1 | 97
[48] CC(=O)[C@H]1CC[C@H]2[C@@H]3C=CC4=CC(=O)CC[C@@]4(C)[C@H]3CC[C@]12C
    -0.2[3.7 µM] | 106 | -0.3 | 104
[49] CCCC(=O)Nc1cccc(NC(=O)c2ccccc2Br)c1
    -0.3[3.7 µM] | 108 | -0.6 | 108
[50] Nc1ncnc2c1c(-c1ccc(OCc3ccccc3)cc1)cn2C1CC(CN2CCC2)C1 (configuration not stated)
    0.4 | 67 | 1.3 | 65
[51] FC(F)c1nc2ccccc2n1-c1nc(N2CCOCC2)nc(N2CCOCC2)n1
    -0.3 | 97 | -0.1 | 95
[52] O=c1[nH]c(=O)n(C2CC(O)C(CO)O2)cc1I (configuration not stated)
    0.0[3.7 µM] | 90 | -0.2 | 101
[53] Cc1ccc(NC(=O)c2cccc(C(C)(C)C#N)c2)cc1Nc1ccc2ncn(C)c(=O)c2c1
    0.0 | 97 | 0.0 | 89
[54] Cc1cnc(Nc2ccc(F)cc2Cl)nc1-c1c[nH]c(C(=O)NC(CO)c2cccc(Cl)c2)c1 (configuration not stated)
    -0.2 | 85 | 0.0 | 92
[55] CC(C(O)c1ccc(O)cc1)N1CCC(Cc2ccccc2)CC1 (configuration not stated)
    0.1[3.7 µM] | 109 | -0.2 | 104
[56] C=C1CCC(O)CC1=CC=C1CCC[C@@]2(C)[C@H]1CC[C@H]2C(C)CCCC(C)(C)O (some centres not stated)
    -0.3[3.7 µM] | 112 | -0.5 | 105
[57] CCc1c(Cl)c(O)c(Cl)c(O)c1C(=O)OC1C(C)OC(OCC2=CC=CCC(O)C(C)=CC(CC)C(O[C@@H]3OC(C)(C)C(OC(=O)C(C)C)C(O)C3O)C(C)=CC(C)=CC[C@H](C(C)O)OC2=O)C(OC)C1O (some centres not stated)
    -0.1[3.7 µM] | 101 | -0.3 | 96
[58] O=C(O)C1=COC(OC2OC(CO)C(O)C(O)C2O)[C@@H]2C(CO)=CC[C@H]12 (some centres not stated)
    -0.1[3.7 µM] | 114 | -0.3 | 110
[59] C=C1C(=O)OC2C1CCC(C)=CCC[C@@]1(C)OC21 (some centres not stated)
    0.1 | 79 | 0.1 | 94
[60] COc1cc(C(=O)N2CCC(N3CCN(C)CC3)CC2)ccc1Nc1ncc2c(n1)N(C)c1ccccc1C(=O)N2C
    0.7 | 80 | 2.4 | 80

Compounds from the list above with sulfur:
Each structure is followed by: p53 nuclei | p53 nuclei cells 24 h | p53 nuclei p53 24 h | p53 nuclei cells 48 h
[1] CC(=O)Nc1nc2c(Oc3cc(-c4ccc(C(F)(F)F)cc4)ncn3)cccc2s1
    -0.1[3.7 µM] | 104 | -0.3 | 105
[3] O=C(O)c1ccccc1SC1=NS(=O)(=O)c2ccccc21
    0.1 | 112 | 0.0 | 111
[4] CC(=O)Oc1cc2c(s1)CCN(C(C(=O)C1CC1)c1ccccc1F)C2 (configuration not stated)
    -0.3[3.7 µM] | 104 | -0.3 | 104
[7] O=C(CC(CSc1ccccc1)C(=O)O)c1ccc(-c2ccc(Cl)cc2)cc1 (configuration not stated)
    0.1 | 99 | -0.1 | 106
[10] CC(C)(N)C(=O)NC(COCc1ccccc1)C(=O)N1CCC2(CC1)CN(S(C)(=O)=O)c1ccccc12 (configuration not stated)
    0.2 | 108 | 0.0 | 107
[13] CC(=O)NS(=O)(=O)c1ccc(N)cc1
    -0.1[3.7 µM] | 114 | -0.2 | 103
[20] COc1cc(NS(=O)(=O)c2ccc(N)cc2)nc(OC)n1
    -0.2[3.7 µM] | 104 | -0.2 | 100
[22] CC(C)(C)OC(=O)CN(Cc1ccc(Cl)cc1)Cc1ccc([N+](=O)[O-])s1
    -0.3 | 118 | -0.2 | 106
[23] CCCc1nn(C)c2c(=O)[nH]c(-c3cc(S(=O)(=O)N4CCN(C)CC4)ccc3OCC)nc12
    -0.3 | 121 | 0.1 | 117
[25] Cc1ccc(S(=O)(=O)c2ccc([N+](=O)[O-])o2)cc1
    11[3.7 µM] | 62 | 20 | 60
[28] CC(=O)N[C@@H](CS)C(=O)O
    -0.1[3.7 µM] | 98 | -0.2 | 104
[32] O=S(=O)(O)Oc1ccc(C(c2ccc(OS(=O)(=O)O)cc2)c2ccccn2)cc1
    -0.1[3.7 µM] | 112 | -0.3 | 101
[38] NC(=O)CCCSc1nc(N)nc(-c2c(Cl)cc3c4c(cccc24)COC3)n1
    -0.1[3.7 µM] | 41 | -0.3 | 34
[43] NC(=O)c1c(NC(=O)C2CC2)sc2c1CCCC2
    -0.1 | 104 | -0.1 | 108

Later entries
Each structure is followed by: p53 nuclei | p53 nuclei cells 24 h | p53 nuclei p53 24 h | p53 nuclei cells 48 h
[61] CSCCC(NC(=O)C(CC(C)C)NC(=O)C(Cc1cnc[nH]1)NC(=O)CNC(=O)C(NC(=O)C(C)NC(=O)C(Cc1c[nH]c2ccccc12)NC(=O)C(CCC(N)=O)NC(=O)C(CC(N)=O)NC(=O)CNC(=O)C(CC(C)C)NC(=O)C(CCCNC(=N)N)NC(=O)C(CCC(N)=O)NC(=O)C1CCC(=O)N1)C(C)C)C(N)=O (configuration not stated)
    -0.2 | 105 | -0.1 | 103
[62] COC(=O)NC(C(=O)N1CCCC1c1ncc(-c2ccc(-c3ccc(-c4cnc(C5CCCN5C(=O)C(NC(=O)OC)C(C)C)[nH]4)cc3)cc2)[nH]1)C(C)C (configuration not stated)
    -0.6[3.7 µM] | 109 | -0.3 | 110
[63] Cc1cc(C(C)(C)C)c(O)c(C)c1CC1=NCCN1
    -0.2[3.7 µM] | 111 | -0.3 | 108
[64] CCN1CCN(Cc2ccc(Nc3ncc4c(n3)N(C)c3ccccc3C(=O)N4C)cc2C(F)(F)F)CC1
    22 | 36 | 33 | 20
[65] Cn1cc(CNCC2CCN(c3ncc(C(=O)NO)cn3)CC2)c2ccccc21
    108* | 37* | 120* | 23*

Screening data deposited in PubChem by ICCB-Longwood Screening Facility, Harvard Medical School.

These rows are one share of the data. The share of hits here may be higher or lower than overall.
